High-throughput results deposited in PubChem by several laboratories.
Beta cell apopt: beta cell apoptosis inhibition; INS-1E cytokine-induced death, ATP luminescence, 48 h; percent of positive-control rescue, neutral wells zero; protection from apoptosis, % (no concentration beside the values); 0.8% of 300,000 active;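 active = all replicates at 75% or more, or half of them and the mean; inconclusive = half reach 75% but not the mean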;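 note: 0% = cytokine-treated negative control wells and 100% = positive control rescue; higher means more ATP so stronger rescue from cytokine killing; wells of about 40 µL received 100 nL stock; the first replicate is given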
T cruzi inh: blocks replication of Trypanosoma cruzi; T. cruzi beta-gal in NIH3T3, luminescence, 90 h; inhibition, % (concentration not given with the values); 1.4% of 300,000 active;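 active = mean inhibition across valid replicates above about 55%, limit read from the data; inconclusive = mean below that limit but half or more replicates reach it; inactive = mean below it, under half of replicates reach it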;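 note: signal also drops with host cell toxicity which is not excluded here; 0% = plate median of DMSO wells and 100% = zero luminescence signal; higher percent means less beta-gal luminescence so fewer parasites; stock transfer was 50 nL into about 50 µL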
MLL AF4-AF9 inh: MLL-AF4/AF9 protein interaction inhibition. 0.47% of 350,000 active. AlphaScreen, biotin-AF4 peptide binding to FLAG-AF9. inhibition, % at 10 µM. AID 651704. P42568;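 active = every replicate reaching a set inhibition limit, whatever the replicate mean, cut at about 25% in these data; inconclusive = mean inhibition reaches that limit but some replicates miss it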;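 note: 0% = plate neutral control median and 100% = total signal loss; the record names both 10 and 1 µM as test concentration; the first replicate is given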
Target sequence (P42568 whole entry, looked up): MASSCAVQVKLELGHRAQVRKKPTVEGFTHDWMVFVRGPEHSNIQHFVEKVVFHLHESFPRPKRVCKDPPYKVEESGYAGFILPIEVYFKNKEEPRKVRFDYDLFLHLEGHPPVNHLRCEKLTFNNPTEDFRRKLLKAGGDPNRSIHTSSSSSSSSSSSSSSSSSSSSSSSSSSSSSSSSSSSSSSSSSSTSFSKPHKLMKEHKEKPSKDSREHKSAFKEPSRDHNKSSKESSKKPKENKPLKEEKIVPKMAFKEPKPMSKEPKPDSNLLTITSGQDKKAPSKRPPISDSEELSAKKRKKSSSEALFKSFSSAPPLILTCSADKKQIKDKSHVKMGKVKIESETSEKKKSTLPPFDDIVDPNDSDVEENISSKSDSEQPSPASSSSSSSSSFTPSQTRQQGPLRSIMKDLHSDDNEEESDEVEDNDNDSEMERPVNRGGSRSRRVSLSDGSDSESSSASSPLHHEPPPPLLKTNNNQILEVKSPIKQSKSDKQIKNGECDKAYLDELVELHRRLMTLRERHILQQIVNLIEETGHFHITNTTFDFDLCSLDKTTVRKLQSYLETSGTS
Ecoli rRNA inh: selective bacterial rRNA inhibition in E. coli; GFP signal change (wild-type ribosome), % (concentration not given with the values); E. coli WT GFP vs humanized-ribosome RFP mutants, fluorescence, 24 h; hits give low values; DMSO median 0, no signal -100; 1.6% of 350,000 active;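 active = significant combined selectivity score with lowered wild-type GFP, culture density cut under 30%, mutant RFP and density less affected; inactive = any of these conditions unmet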; note: one replicate is shown; some compounds called inactive have numbers as strong as hits
RanGTP-Impb inh: disruptors of Ran-importin-beta complex formation – biochemical, FRET, CFP-Ran, YFP-importin-beta, homogeneous, primary screen; cell-free CFP-Ran/YFP-importin-beta FRET ratio; 1.1% of 300,000 active; inhibition, % (no concentration beside the values); AID 2216;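 active = most replicates above 15%; inconclusive = exactly half above 15%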;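 note: 0% = DMSO wells and 100% = Ran loaded with GDP instead of GTP; wells of about 40 µL received 100 nL stock; the first replicate is given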
Bfl-1 A1 inh: inhibitors of the anti-apoptotic protein A1, read as caspase activation. MEF A1-2A-BIM cells, Caspase-Glo 3/7 luminescence, 3 h; percent of clofoctol response, vehicle zero. caspase activation, % (test concentration not listed). 0.066% of 330,000 active. AID 2462;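 active = over half of replicate activation scores above 10%, or exactly half above 10 with the replicate mean above 10; inconclusive = replicate mean below 10 yet half the replicates above 10; inactive = over half of replicates below 10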;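 note: wells of about 30 µL received 50 nL stock; many hits fall short of the cut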
Calb FLC: affects C. albicans growth with fluconazole; growth inhibition, % (no concentration beside the values); 0.57% of 300,000 active; AID 1979; C. albicans CaCi-2 (fluconazole-resistant clinical isolate) + fluconazole, Alamar Blue growth, 48 h;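 active = most replicates above 75%; inconclusive = exactly half above 75%; inactive = most below 75%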;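 note: all wells also contain fluconazole at 8 µg/ml as a sub-toxic cotreatment; 0% = median of DMSO wells and 100% = median of geldanamycin control wells; wells of about 8 µL received 7.5 nL stock; the first replicate is given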
Vif A3G: inhibitors of Vif binding to APOBEC3G peptide, primary screen, biochemical, TR-FRET, GST-Vif 1-94, biotin-A3G peptide, dose response retest (AID 1117319); 0.57% of 260,000 active; one-dose inhibition, %; IC50 in µM for titrated hits; TR-FRET GST-Vif / biotin-A3G peptide binding; higher % means a stronger effect; test concentration not given here; strong numbers were not always called active;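 active = above the screen mean plus three standard deviations and confirmed in dose response; inconclusive = results disagree or hit not tested in dose response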;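 note: Vif residues 1-94 fused to GST binding biotinylated APOBEC3G peptide 110-148; 0% = full assay without inhibitor and 100% = GST in place of GST-Vif; retest series ran down from 100 µM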
Ecoli rRNA inh OD600: further read-out of Ecoli rRNA inh, marked with its call; OD600 change, %; measured here: OD600 growth;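 optical density of the mix in the first replicate; 0 = DMSO median and -100 = no signal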
Ecoli rRNA inh RFP: further read-out of Ecoli rRNA inh, marked with its call; RFP signal change, %; measured here: RFP humanized mutant strains;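 first replicate; 0 = DMSO median and -100 = no signal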
* hit, by the source's call; ? = inconclusive; / = not tested or not shown.

molecule,Beta cell apopt,T cruzi inh,MLL AF4-AF9 inh,Ecoli rRNA inh,Ecoli rRNA inh OD600,Ecoli rRNA inh RFP,RanGTP-Impb inh,Bfl-1 A1 inh,Calb FLC,Vif A3G
CCCc1ccc2oc(C(=O)N3CCC[C@H]3CO)c(C)c2c1,-2,1,4.7,-25,-41,-4.5,-0.1,0.4,1,0%
C=C(C)C1Cc2nc(N)nc(C)c2C1 (centres undefined),/,0,/,/,/,/,6.6,0.5,3,6%
Cc1cc(O)c(C(C)C)cc1N=Nc1ccccc1C(=O)O,-1,10,-8.2,13,14,1.0,-3.6,0.6,49,0%
O=C(N/N=C/c1c(Cl)cccc1Cl)c1cccc(F)c1,-4,-5,8.7,12,8,1.5,4.0,-2.1,?,12%
COc1ccc(C=O)cc1OC(=O)N1CCOCC1,-7,-4,-2.7,6,5,-1.5,-0.7,0.2,-2,/
CN(c1ccccc1)S(=O)(=O)c1cccc(NC(=O)Cc2ccc(Cl)cc2)c1,14,/,0.4,-6,-39,25,/,1.8,/,8%
Cc1occc1-c1nnc(SCc2nc3ccccc3c(=O)n2CC#N)n1C,-1,-3,/,/,/,/,5.3,0.5,12,16%
CC(=O)Nc1ccc(N=Nc2c(C)[nH]n(C(N)=S)c2=O)cc1,-3,8,2.4,-1,0,-2.5,-1.3,-7.0,4,6%
Nn1c(SCC(=O)Nc2ccc(F)cc2)nnc1-c1ccccn1,3,-4,/,/,/,/,-1.1,0.1,36,2%
CCOc1ccc(OCCCC(=O)ON=C(N)c2ccccc2C)cc1,3,/,-2.4,11,8,-0.3,/,-0.2,/,-8%
O=C(/C=C/c1ccc(S(=O)(=O)N2CCOCC2)cc1)NC(=S)Nc1ccc(Cl)cc1Cl,-2,-11,-1.7,/,/,/,-3.7,0.3,-7,/
CCn1c(CCNC(=O)c2ccc(Cl)cc2)n[nH]c1=S,-5,7,/,/,/,/,-1.1,-0.3,9,-3%
CC(OC(=O)c1cc(S(=O)(=O)N2CCOCC2)ccc1Br)C(=O)N1CCOCC1 (centres undefined),-4,/,1.0,3,2,-1.3,/,-0.5,/,-7%
COc1ccc(OC)c(C(=O)COC(=O)c2cc(C)oc2C)c1,0,-24,/,/,/,/,?,-1.1,5,16%
CC1(C)CN(c2ccc(Br)cc2Br)C1=O,/,-4,-0.3,10,11,2.7,1.2,0.1,-1,/
Cc1cc(C)n(-c2ncnc3c2oc2ccccc23)n1,-6,-6,/,/,/,/,6.2,1.2,-1,4%
CC(C)(C)NCC(=O)c1c[nH]c2ccccc12,-2,-6,/,/,/,/,?,-0.2,6,6%
CC(C)C(=O)NC(=S)Nc1ccc(S(=O)(=O)Nc2ccccc2)cc1,-9,13,/,/,/,/,2.6,1.1,30,/
O=C(N/N=C/c1ccc(OCCCF)cc1)c1cc(OCC(F)(F)F)ccc1OCC(F)(F)F,4,-2,/,/,/,/,4.0,-0.1,-7,?
COc1ccc(OC)c(/C=N/NC(=O)c2cc3c(OC)cccc3[nH]2)c1,-4,-1,/,-25,-11,12,5.4,0.2,-4,-5%
COCCNC(=O)c1cc(Br)ccc1Cl,-2,3,/,/,/,/,?,0.2,-5,-7%
CC1(C)C2CCC1(C)C(OCCNCCOC(=O)Nc1ccccc1)C2 (centres undefined),-2,2,-0.5,-37,-44,-0.2,3.0,-0.2,7,?
Cc1ccc(C(=O)N2CCCC(CCC(=O)NCc3ccc(F)c(F)c3)C2)cn1 (centres undefined),/,1,-4.6,4,6,-0.4,1.5,/,-3,/
CCCC1CC(CSc2ncn[nH]2)OC1=O (centres undefined),-2,-11,-2.8,0,18,1.5,-1.6,0.4,10,-6%
COc1ccc(CC(=O)NCCS(=O)(=O)N2CCN(c3ccccc3)CC2)cc1,6,2,-0.8,11,6,5.4,-0.8,0.5,-7,/
COc1ccc(/C=N/NC(=O)c2ccc(N(C)S(=O)(=O)c3ccccc3)cc2)cc1,0,7,/,/,/,/,0.6,-0.1,4,/
COc1ccc(NC(=S)N2CCC(N(C)CCN3CCOCC3)CC2)cc1Cl,-6,29,/,/,/,/,-3.5,-0.5,-3,/
Cc1nc(C(Cl)(Cl)Cl)nc2[nH]ccc(=O)c12,3,0,0.6,-14,-13,0.0,-1.5,1.1,-1,5%
COc1ccc(NC(=O)C(CC(=O)O)Cc2ccc(C)cc2)cc1 (centres undefined),-2,-20,-3.9,7,5,-1.8,-3.8,0.3,-1,/
Cc1cc(/C=N/NC(=O)c2cccnc2)c(C)n1CC(C)C,-2,-5,7.2,9,9,4.4,-3.2,1.7,21,-6%

(further entries)
molecule,Beta cell apopt,T cruzi inh,MLL AF4-AF9 inh,Ecoli rRNA inh,Ecoli rRNA inh OD600,Ecoli rRNA inh RFP,RanGTP-Impb inh,Bfl-1 A1 inh,Calb FLC,Vif A3G
Cc1nnc(SCC(=O)NCC2COc3ccccc3O2)s1 (centres undefined),-2,/,1.0,3,4,-2.1,/,0.6,/,-4%
COc1ccccc1N1C(=O)S/C(=C\c2cccs2)C1=O,-2,-10,1.5,14,-2,2.5,1.4,1.6,-13,7%
Nc1cc(=O)[nH]c(SCC(=O)Nc2ccc(S(=O)(=O)N3CCOCC3)cc2)n1,-5,-17,-0.9,6,10,-8.1,-1.6,1.1,9,24%
Cc1ccc(S(=O)(=O)N2CCCOC2CNC(=O)C(=O)NCc2ccc3c(c2)OCO3)cc1 (centres undefined),/,0,0.6,6,16,4.4,?,0.3,-5,/
Cc1ccc2c(COC(=O)c3n[nH]c4ccccc34)cc(=O)oc2c1,7,5,/,/,/,/,-1.3,-1.6,0,-9%
CCOC(=O)C(C)Sc1nnc(CSc2nc3nc(C)cc(C)n3n2)o1 (centres undefined),-2,3,/,/,/,/,-2.9,-0.1,4,9%
COc1cc(C(C)=O)ccc1OCC(=O)NC(=O)Nc1ccc(C)cc1C,-3,/,0.8,3,7,-1.8,/,-0.1,/,/
Cc1cc(C)cc(NC(=O)CSc2nc3c(c(=O)[nH]2)CN(Cc2ccc(F)cc2)CC3)c1,-6,-7,-2.5,3,11,2.4,-1.6,-0.9,-3,/
Nc1nc(SCc2ccc(Cl)cc2Cl)nc2nc3c(cc12)CCCC3,13,26,-1.1,6,16,-1.2,?,0.4,-5,/
CCOC(=O)C1CCN(CC(O)COCc2ccc(Cl)cc2)CC1 (centres undefined),/,7,0.1,18,8,2.8,1.2,0.4,-1,9%
Cc1cc(C)c2c(=O)[nH]c(SCC(=O)Nc3ccc(Br)cc3)nc2n1,2,-2,0.6,0,1,-3.6,9.1,-0.5,-2,/
CC(C)Cn1c(-c2cccs2)nc2nc3ccccc3nc21,1,11,/,/,/,/,8.0,-0.4,57,-6%
C=CCn1c(=O)c(C(=O)NC2CC2)c(O)c2cc(OC)c(OC)cc21,-4,-17,-1.4,29,12,4.9,3.7,-7.2,-5,/
O=C1C=C(NCc2ccc(Cl)c(Cl)c2)C2(CCCCC2)O1,2,8,/,/,/,/,-4.4,0.5,0,0%
COC(Cc1nnc(SC)n1-c1ccccc1)OC,-5,10,/,/,/,/,-1.5,0.2,0,7%
O=C(CSc1ncc(-c2ccc(F)cc2)[nH]1)N1CCCCC1,-5,-2,1.5,5,9,2.6,-1.4,-1.9,-3,-6%
Cc1ccc(CC(=O)Nc2ccc(S(=O)(=O)Nc3nccc(C)n3)cc2)cc1,-3,4,-5.0,7,17,2.9,?,-0.7,7,/
O=C(Cn1cc(C(F)(F)F)ccc1=O)Nc1cccc(S(=O)(=O)N2CCOCC2)c1,0,-12,4.5,17,13,7.6,-3.9,1.5,-2,16%
CCN(CC)CCCN(Cc1cc2cc(OC)ccc2[nH]c1=O)C(=O)Nc1ccccc1,-3,2,/,/,/,/,-2.9,0.3,2,8%
O=c1[nH]c(Nc2ccccc2)cc2cc(Br)ccc12,-5,-18,2.9,-6,-4,3.1,83*,-0.4,4,/
O=c1ccc(-c2nc3cc(Cl)ccc3n2Cc2ccccc2)c[nH]1,/,4,1.4,-21,-31,0.5,-0.8,-1.2,-4,/
Cc1cccc(OCC(=O)N2CCC(N3CCCCCC3)CC2)c1,-3,19,/,/,/,/,6.1,-0.2,35,0%
COC(=O)CNC(=O)C1Nc2ccc(OC(F)(F)F)cc2C2C=CCC12 (centres undefined),-6,-7,1.4,2,-1,11,0.0,-1.5,-2,/
N/C(CS(=O)(=O)c1ccccn1)=N\OC(=O)c1ccccc1Cl,-1,-1,-0.8,7,2,0.9,1.2,-1.1,-11,3%
CSc1nnc(CNS(=O)(=O)c2ccc(F)cc2)n1C,-1,-13,-1.5,7,12,-1.4,-0.2,-0.2,1,/
CCOc1ccc(NCC(=O)N/N=C/C=C/c2ccccc2)cc1,3,13,5.7,1,5,0.9,0.2,-1.9,-2,/
CCOC(=O)c1[nH]c(C)c(C(=O)c2ccc(C)cc2)c1C,6,-88,/,/,/,/,-0.1,0.7,27,-12%
Cc1nc(CCNC(=O)Cc2ccc(F)cc2)cs1,1,-19,8.9,1,9,-2.4,-1.7,0.0,-1,1%
Cc1ccc(S(=O)(=O)N2CCN(c3ccccc3)CC2)cc1,-1,6,-4.7,18,12,1.0,-4.7,0.1,7,/
CC(=O)N(C)c1ccc(NC(=O)C(c2ccccc2)c2ccccc2)cc1,6,7,-2.1,-5,-3,-1.7,-1.1,0.5,-4,/

(next part)
molecule,Beta cell apopt,T cruzi inh,MLL AF4-AF9 inh,Ecoli rRNA inh,Ecoli rRNA inh OD600,Ecoli rRNA inh RFP,RanGTP-Impb inh,Bfl-1 A1 inh,Calb FLC,Vif A3G
CCOC(=O)c1c(NCc2ccccc2)n[nH]c1C,-7,3,0.8,10,13,5.1,-2.7,-0.3,-11,-2%
Cn1cc(/C(Cc2ccccc2)=N\O)c2ccccc21,/,5,/,/,/,/,7.6,1.0,0,8%
CN(CCCNC(=O)C1CCCN(S(=O)(=O)c2cnc[nH]2)C1)c1ccccc1 (centres undefined),4,-9,-1.5,4,11,2.3,0.7,0.1,-1,0%
Cc1ccc(NC(=O)c2nc3nccc(C)n3n2)c(C)c1,-9,-20,-2.6,4,-3,-0.6,-3.8,-1.1,2,-7%
COc1ccc(Cl)cc1NC(=O)CN(C)C(=O)c1ccc(N2CCCCC2)c([N+](=O)[O-])c1,11,31,7.7,-15,-29,-1.6,/,0.1,1,3%
O=C(Cc1ccc(F)cc1)NCc1cccnc1,1,-34,-0.9,16,16,3.3,-1.3,-0.7,?,-1%
C=CCSc1nsc(NC(=O)Nc2cccc(C(C)=O)c2)n1,33,4,3.4,-46,-70,-15,?,-0.3,-6,30%
Nc1ccc2nc(CCCCCCCCc3nc4ccc(N)cc4[nH]3)[nH]c2c1,-5,-5,12,-6,25,-0.5,3.7,0.9,-3,4%
O=C(C[n+]1ccccc1)Nc1ccccc1C(F)(F)F,-2,-4,-1.8,9,15,-0.2,-3.1,0.5,1,/
Cn1cnc([N+](=O)[O-])c1Sc1n[nH]c(N)n1,-6,-3,-2.7,-2,10,-0.3,-3.9,2.6,9,-5%

Some of the compounds tested, so the mix of outcomes need not match the whole.
